Autofluor counter = counter-screen for toxin protease inhibitors: compound fluorescence | compound autofluorescence counterscreen, microsphere flow cytometry; hits give high values | fluorescence intensity (no concentration beside the values) | 3.1% of 360,000 active;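 active = at least 3 SD above the mean of all compounds, about 16000 in these data; inconclusive = too few beads counted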;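 note: 100 nL of 1 mM stock went into each well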
Sa ugtP lethal = growth inhibition of S. aureus ugtP deletion strain; S. aureus RN4220 ugtP deletion, OD600 growth, 16 h; some inactives read as strong as hits; growth inhibition, % (concentration not given with the values); AID 1259309; 0.54% of 330,000 active;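 active = z-score under -3 and OD600 up to 0.15 on both plates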;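 note: plate controls were untreated wells for no effect and antibiotic for full effect; wells of about 80 µL received 100 nL stock; the first replicate is given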
PrP UTR inh = inhibition of PrP 5' UTR reporter expression. cell-based PrP 5' UTR mRNA reporter, plate reader. inhibition, % (test concentration not listed). 0.35% of 340,000 active. AID 488862;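 active = every replicate at 50% or more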;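 note: 0 = median of the neutral control wells; tested in H4 reporter cells; numbers are from one replicate; inactives centre near -14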
BJeLR viability = BJeLR cell viability loss | BJeLR (HRASV12) viability, CellTiter-Glo ATP luminescence, 48 h; reference of the scale not given here | 0.17% of 300,000 active | inhibition, % (test concentration not listed);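 active = replicate mean above 50%; inconclusive = above 50% but judged a plate artefact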;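 note: 50 nL library stock added to about 25 µL; numbers are from one replicate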
Sa RN4220 lethal = kills Staphylococcus aureus RN4220 | S. aureus RN4220 growth, OD600, 16 h | AID 1259311 | inhibition, % (concentration not given with the values) | 0.33% of 330,000 active;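 active = z-score of -3 or lower and OD600 up to 0.18 on both plates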;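 note: plate controls were untreated cells for no effect and reference antibiotic for full effect; stock transfer was 100 nL into about 80 µL; one replicate is shown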
Mtb hypoxia rep = reduces hypoxia-regulated biosensor signal in M. tuberculosis; M. tuberculosis hypoxia-regulated fluorescent reporter, fluorescence; fluorescence inhibition, % (test concentration not listed); 0.1% of 300,000 active;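 active = 35 to 45% if threefold the growth effect, above 45% if 1.5-fold the growth effect; inactive = the rest, general growth blockers included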;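 note: wells of about 50 µL received 100 nL stock; 0% = vehicle wells and 100% = reference inhibitor wells; whole bacteria with a GFP reporter of the hypoxia response; strong numbers were not always called active; many hits fall short of the cut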
Mtb hypoxia rep growth = further read-out of Mtb hypoxia rep, marked with its call; growth inhibition, %; measured here: M. tuberculosis growth (absorbance);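 0% = vehicle and 100% = reference antibiotic; read after six days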
* hit, by the source's call; ? = inconclusive; · = not tested or not shown; & = joins results of further samples.

SMILES	Autofluor counter	Sa ugtP lethal	PrP UTR inh	BJeLR viability	Sa RN4220 lethal	Mtb hypoxia rep	Mtb hypoxia rep growth
CN1C(=O)C(=Cc2ccccc2OCc2ccc(Cl)cc2)C(=O)N(C)C1=O	2464	12	-28	6	9.2	12	5
Cc1cccc(C(=O)OCC(=O)N2CC(C)CC(C)C2)c1C (configuration not stated)	3860	7	-18	·	2.0	11	12
COc1ccc(NC(=O)COc2ccc(C(=O)c3ccc(F)cc3)cc2)cc1S(N)(=O)=O	5512	4	-17	-11	-0.1	10	10
CNC(=S)NN=Cc1c(C)nn(-c2cccc(Cl)c2)c1Cl	·	5	·	·	5.3	8	1
Cc1ccc(CC(=O)Nc2ccccc2N2CCOCC2)cc1C	3112	-7	-7	·	-15	19	-15
O=C(NN=C1CCSC1)c1cc(Br)ccc1O	·	8	·	·	15	3	6
Cc1ccc(NC(=O)NCCN2CCCCC2)cc1Cl	3238	6	-14	29	0.5	1	15
CC(CN1CCCC1)C(=O)NN (configuration not stated)	4345	4	-13	-8	3.3	17	1
CCN(CC)c1ccc(C=NNC(=O)c2ccc(Br)o2)cc1	·	10	·	·	3.4	6	3
Cc1cc(C)n(CCC(=O)Nc2ccc(-c3ccno3)cc2)n1	6083	6	-16	0	4.3	2	0
O=C1NC(=S)S/C1=C/c1ccc(OC(=O)c2ccco2)cc1	6065	·	-34	7	·	·	·
CCOC(=O)CN1CC23C=CC(O2)C(C(=O)NC2CCCCC2)C3C1=O (configuration not stated)	3877	7	-23	9	3.1	·	·
CC(C)Cn1c(SCC(=O)N2CCN(S(=O)(=O)c3ccccc3)CC2)nc2ccccc21	5930	-11	-13	3	-3.9	-1	11
O=C(Nc1cccnc1)c1cc(-c2cccc(Br)c2)nc2ccccc12	7066	9	-13	-9	0.1	13	-2
COC(=O)c1cc2ccsc2n1CC(=O)N(C)c1ccccc1	10028	-2	-36	-2	6.2	16	12
N#C/C(=C\c1ccc[nH]1)C(=O)N1CCCCC1	·	-4	-30	-11	-0.9	9	1
COc1ccc(Cl)cc1C(=O)Nc1nc2ccc(S(C)(=O)=O)cc2s1	·	0	·	-3	2.2	3	-4
CCCCC(=O)OCCNC(=O)c1cc2ccccc2oc1=O	3859	1	-10	-5	2.3	·	·
COn1c(=O)c(-c2ccc(C)cc2)[n+]([O-])c2ccccc21	3171	7	-20	0	4.0	10	-6
COc1ccccc1NC(=O)CCN1CC(C)OC(C)C1 (configuration not stated)	3498	-2	-18	-3	4.2	1	8

Part of the list above in order of heavy-atom count, lowest first:
SMILES	Autofluor counter	Sa ugtP lethal	PrP UTR inh	BJeLR viability	Sa RN4220 lethal	Mtb hypoxia rep	Mtb hypoxia rep growth
COc1ccccc1NC(=O)CCN1CC(C)OC(C)C1 (configuration not stated)	3498	-2	-18	-3	4.2	1	8
O=C1NC(=S)S/C1=C/c1ccc(OC(=O)c2ccco2)cc1	6065	·	-34	7	·	·	·
CC(C)Cn1c(SCC(=O)N2CCN(S(=O)(=O)c3ccccc3)CC2)nc2ccccc21	5930	-11	-13	3	-3.9	-1	11

The listing continues:
SMILES	Autofluor counter	Sa ugtP lethal	PrP UTR inh	BJeLR viability	Sa RN4220 lethal	Mtb hypoxia rep	Mtb hypoxia rep growth
O=C(CCC1CCCCC1)Nc1ncn[nH]1	8636	-2	-30	0	3.8	15	10
COc1ccccc1NC(=O)C1=C(C)NC(SCC(=O)Nc2ccc(C(=O)O)cc2)=C(C#N)C1c1cccs1 (configuration not stated)	?	5	-4	-1	7.3	8	3
CCSc1ccccc1C(=O)N1CCN(c2ccc([N+](=O)[O-])cc2)CC1	4265	-1	-2	-6	6.3	14	9
CN1CCN(C(=O)C2=CC(c3ccc(C(F)(F)F)cc3)CC(OCc3ccc(CO)cc3)O2)CC1 (configuration not stated)	·	6&7	·	·	5.5&4.7	4&22	3&17
COc1ccc(C=NNc2ncc(C(F)(F)F)cc2Cl)cc1OC	·	5	·	·	7.3	2	5
CCOc1cc(NC(=S)NCCCOC)c(OCC)cc1NC(=O)c1cccs1	2506	11	-5	-4	8.2	7	1
CCC(C)(C)NC(=O)c1ccccc1Oc1ccccc1	5030	5	-21	7	8.0	15	1
Cc1cc(NC(=O)CCC(=O)N(CC(=O)NC2CCCC2)c2ccc(Cl)c(Cl)c2)no1	3102	5	-6	-6	5.4	-6	13
O=c1c2ccccc2nnn1Cc1ccc(Br)cc1	4408	0	-46	-3	4.0	12	5
COc1ccc(CC(=O)N2CCN(S(=O)(=O)c3ccc(Cl)s3)CC2)cc1	6476	6	0	·	4.2	6	5
CC1CCC(NC(=O)CC(NC(N)=O)c2ccccc2Cl)CC1 (configuration not stated)	3579	1	-34	-4	1.7	13	3
CCN1CCCC1CNC(=O)c1cc2c(-c3cccc(OC)c3)nn(C)c2s1 (configuration not stated)	5378	7	-34	12	-2.2	·	·
O=S1(=O)c2ccc(Br)cc2OC(COCc2ccccc2)CN1Cc1ccccc1 (configuration not stated)	3749	8	0	·	0.8	3	4
CC1(C)Cc2ccccc2-c2nnnn21	9283	2	5	-11	3.7	6	5
O=C(NCc1ccccc1)C1=C[C@@H](c2csc3ccccc23)C[C@@H](OCc2ccc(CO)cc2)O1	2813	·	-1	-6	·	·	·
Cc1nnc(SCC(=O)N(C2CCCCC2)C2CCS(=O)(=O)C2)n1N (configuration not stated)	4923	-5	2	-4	0.5	-1	2
COc1ccccc1-c1nnc(-c2ccc(C)cc2)o1	4015	-18	-65	-7	1.9	12	6
N#C/C(=C(/O)c1cccs1)c1nnc2n1CCCCC2	2258	5	-42	3	-1.1	-13	5
CCOC(=O)c1c(-c2ccccc2)nc2ccccn12	22802*	-2	-11	2	-1.1	21	31
Cc1ccc(N(Cc2cc(=O)[nH]c3ccccc23)C(=O)C(C)C)cc1	3366	7	-1	11	9.4	3	-7
Fc1ccccc1NC(=S)NN(Cc1ccccc1)c1ccccc1	9989	17	-33	-3	3.5	3	1
CCCCN(Cc1nc2ccccc2c(=O)[nH]1)C(=O)c1nn(C)c(=O)c2ccccc12	6138	11	-10	·	3.3	2	-4
O=C(COC(=O)c1n[nH]c2ccccc12)c1cccc(Br)c1	6188	-10	-22	-2	4.4	-1	-3
O=C(Nc1cccc(CCc2ccccn2)c1)c1ccc(Cl)cc1	·	2	·	-13	-1.7	9	0
CC1(C)CC(=O)C(C2C3=C(CC(C)(C)CC3=O)Oc3c(Br)cc(Br)cc32)=C(O)C1 (configuration not stated)	3548	37	-13	2	24	4	7
O=C(C1=C[C@H](c2ccc3c(c2)OCO3)C[C@H](OCCCCO)O1)N1CCN(Cc2ccc3c(c2)OCO3)CC1	4055	·	-6	11	·	·	·
Cc1oc2ccccc2c1-c1cn2c(n1)SCC2	23992*	0	4	6	8.3	6	0
CC(NC(=O)c1[nH]cnc1C(=O)Nc1cccc(Cl)c1)c1ccccc1 (configuration not stated)	·	-37&-34	·	·	-9.8&-20	11&13	4&6
O=C(Cn1nnc(-c2ccccc2Cl)n1)N/N=C/c1ccc2c(c1)OCO2	3265	·	-9	-12	·	·	·
Cn1c(SCC(=O)NC2CCS(=O)(=O)C2)nnc1-c1ccco1 (configuration not stated)	3885	-2	-19	·	0.1	0	6
Cc1cccc(C)c1OCc1cc(C(=O)N2CCCC2c2nonc2C)no1 (configuration not stated)	4276	-2	-2	-10	6.7	0	6
Cc1cc(C(=O)Nc2ccc3c(c2)CCC3)ccc1[N+](=O)[O-]	4341	9	·	8	3.6	13	10
O=C(COc1ccc(/C=N/NS(=O)(=O)c2ccccc2)cc1)N1CCOCC1	3678	·	-11	-11	·	·	·
COc1cccc(NC(=O)CN(C)C(=O)c2ccc3c(c2)CC(c2ccccc2)OC3=O)c1 (configuration not stated)	·	4	-30	·	2.6	13	5
Cc1ccc(C(=O)NCC(=O)N2CCCCCCC2)cc1	5096	5	-27	·	3.0	6	-1
CC(Sc1ncc(C(F)(F)F)cc1Cl)C(=O)NC(N)=O (configuration not stated)	4376	7	-10	-4	7.1	11	7
COc1ccccc1C(OC(=O)c1cccs1)C(=O)NCc1ccco1 (configuration not stated)	3657	-3	6	5	3.5	-6	-1
CCN(CC(=O)Nc1ccccc1OC)C(=O)CCc1ccccc1	5892	2	-21	-3	7.5	3	-1
CC1CCCN(C(=O)c2cc3c(=O)n4ccccc4nc3s2)C1 (configuration not stated)	4843	2	-71	-16	2.7	0	0
Cc1cc([N+](=O)[O-])c(C)cc1-c1ccc(C=NNC(=O)c2cccnc2)o1	·	3	·	·	10	16	8

Part of the list above, reduced to Autofluor counter and BJeLR viability:
SMILES	Autofluor counter	BJeLR viability
Cc1cccc(C)c1OCc1cc(C(=O)N2CCCC2c2nonc2C)no1 (configuration not stated)	4276	-10
O=C(COC(=O)c1n[nH]c2ccccc12)c1cccc(Br)c1	6188	-2
COc1ccccc1C(OC(=O)c1cccs1)C(=O)NCc1ccco1 (configuration not stated)	3657	5
Cc1ccc(C(=O)NCC(=O)N2CCCCCCC2)cc1	5096	·

New compounds follow.
SMILES	Autofluor counter	Sa ugtP lethal	PrP UTR inh	BJeLR viability	Sa RN4220 lethal	Mtb hypoxia rep	Mtb hypoxia rep growth
CCn1c(C(=O)N2CCC(C(=O)N3CCN(c4ccccn4)CC3)CC2)cc2sccc21	5876	16	-30	2	14	-7	1
CC1=C(C(=O)N2CCCC(N3CCN(c4cccc(Cl)c4)CC3)C2)OCCO1 (configuration not stated)	4753	-5	-18	5	-5.0	-2	0
O=C(Nc1ccc(Cn2ccnc2)cc1)c1cccc(C(F)(F)F)c1	3335	2	-12	4	-3.7	-8	9
COc1cccc(-n2nc3c(=S)[nH]nc(C)c3c2C)c1	4696	0	-17	-5	-14	0	-1
Fc1ccccc1CNc1cc(Cl)cc(Cl)c1	7349	4	-29	-6	4.1	14	-2
Cc1nonc1CN(C)C(=O)c1ccc(OC2CCN(Cc3ccccn3)CC2)cc1	4180	-11	-5	16	0.0	-18	-2
CN(CCOc1ccc(Cl)cc1)C(=O)c1ccc2c(=O)n3c(nc2c1)CCC3	?	-1	-2	0	2.7	1	0
CC(=O)/C(=N/Nc1ccccc1C)N1CCOCC1	4231	·	-26	-2	·	·	·
O=C(/C=C/c1ccccc1)NCCS(=O)(=O)N1CCN(c2ccccc2)CC1	4507	0	-6	3	-0.6	7	4
CC(C)N(C1=CC(=O)OC12CCCCC2)C(C)C	4461	-1	-14	9	6.1	1	3
O=S(=O)(c1cccnc1)N1CCn2cccc2C1c1ccccc1F (configuration not stated)	6892	15	-17	-3	6.6	5	2
CCc1ccc(OCCOCC(O)CN(CCO)CCO)cc1 (configuration not stated)	2555	4	-25	3	2.2	4	3
COc1ccc(-c2cn(-c3ccc(C)c(C)c3)c(=S)[nH]2)cc1OC	3193	23	-7	-10	3.4	11	8
Cc1cc([N+](=O)[O-])cc(C=NNC(=O)C2COc3ccccc3O2)c1O (configuration not stated)	·	9	·	·	9.0	-1	6
COc1cc2c(cc1OC)CN(C(=O)c1ccncc1)CC2	3942	10	-20	4	6.5	-14	3
CCOC(=O)C1CCCN(C(=O)c2cc(S(=O)(=O)N3CCCCC3)ccc2Cl)C1 (configuration not stated)	·	1	-18	-17	-1.2	-4	-1
Cc1cccc(C2Nc3ccccc3C(=O)N2c2ccc(F)cc2)n1 (configuration not stated)	16125	2	-15	-3	-1.4	2	-1
CCOc1ccc(CN(C)CC(=O)Nc2cc(C)c(C)cc2[N+](=O)[O-])cc1	5469	2	-2	-4	26	-2	-7
CCOC(=O)c1c(-c2ccncc2)csc1N	2943	-2	7	5	-0.9	·	·
Cc1ccccc1Sc1ncccc1[N+](=O)[O-]	6229	12	-3	-4	4.0	20	-1
OC12CCCCC1C(c1ccc3c(c1)OCO3)N(Cc1ccc(F)cc1)CC2 (configuration not stated)	3791	-5	-9	2	3.4	0	6
O=C(Nc1ccc(F)c(Cl)c1)c1ccc2c(c1)OCO2	3530	15	-85	-4	12	11	19
CN1CC2(C)CN(C(c3ccccc3)c3ccccc3)CC(C)(C1)C2O (configuration not stated)	2733	1	-19	0	2.0	·	·
CS(=O)(=O)N1CCN(c2ccc([N+](=O)[O-])c(NCc3cccnc3)c2)CC1	3458	1	-20	-4	2.3	-7	-5
